Yeast UUG start: modulators of start codon recognition fidelity in yeast; AID 602363; 350,000 tested, 0.13% active; S. cerevisiae UUG-firefly luciferase reporter, luminescence/redox ratio; activity score, % at 18.7 µM;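 active = replicate mean at a twofold rise or more, about +100% in these data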;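 also: firefly luciferase made from a UUG start codon reports start codon fidelity; reporter light over untreated wells divided by growth signal over untreated wells; some hits fall short of that in this replicate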
MT1-MMP act inh: MT1-MMP (human) activation inhibition. P50281. HT1080 RFP-PRO-GFP cells, GFP/RFP ratio fluorescence, overnight; percent of plate control window, DMSO zero. GFP/RFP ratio change, % at 20 µM. 360,000 tested, 0.061% active;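 active = GFP/RFP ratio change of at least 30% with cell ATP level not reduced by more than half and red fluorescence within 50% of control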; also: strong numbers were not always called active
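Assay system: HT1080 RFP-PRO-GFP cells. Benchmarks: DMSO vehicle wells and RFP-L50D-GFP reporter cell wells. Times: overnight cell settling, then overnight compound exposure, 37 °C, 5% CO2. Compound: 20 µM single dose, 1% DMSO. Read-out basis: GFP/RFP fluorescence ratio.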
HIV Env fusion: blocks HIV Env-driven cell-cell fusion; AID 651610; inhibition, % at 12.3 µM; HeLa-JRFL Env/CEM21 cell fusion, luciferase; 360,000 tested, 1.1% active;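 active = mean replicate inhibition score of at least 50 and every replicate individually at or above 50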;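 also: 0% = plate neutral controls and 100% = maraviroc near 300 nM; one replicate is shown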
MT1-MMP act inh RFP: further read-out of MT1-MMP act inh, marked with its call; RFP signal change, %; measured here: RFP expression control read;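 0 = vehicle wells; hits needed this value within 50% of zero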
The depositor's hits bear a star; i = inactive; · = no result given; & = joins results of further samples. A portion of the library; the hit share may differ from the screen's.

Under each structure – MT1-MMP act inh, MT1-MMP act inh RFP, Yeast UUG start, HIV Env fusion
1) COc1ccc(S(=O)(=O)N2CCOCC2)cc1NC(=O)c1ccc(OCC(C)C)c(OC)c1
    2, -3, -4, ·
2) Cc1ccc(OC(=O)c2ccc3c(=O)n4c(nc3c2)CCC4)cc1
    5, 3, -24, ·
3) Cc1ccc2oc(=O)ccc2c1
    0, 7, 6, ·
4) Cn1cnc2ncnn2c1=S
    -4, 4, -1, ·
5) CSc1ccc(/C=C/C(=O)OCC(=O)NCC2CCCO2)cc1 (stereo not drawn)
    2, 4, -11, ·
6) COc1ccc(CCNC(=O)COc2cc(C)cc3oc(=O)c(C)c(C)c23)cc1OC
    -1, 1, -20, ·
7) N#CCCN(C(=O)CSc1nnc(-c2ccncc2)n1C1CC1)c1ccccc1
    -1, 2, -4, ·
8) Cc1cccc(NC(=O)CN2CCN(C(=O)c3c(C)nn(Cc4ccccc4)c3C)CC2)c1C
    5, -2, -8, ·
9) O=C(CSc1ncnc2sccc12)N1CCN(C(=O)c2cccs2)CC1
    0, -7, -10, ·
10) CCOc1ccc(NC(=O)CCc2c(C)noc2C)cc1OC
    1, -3, -13, ·

Quoted from the listing:
Reading for #7 in Yeast UUG start: -4
Reading for #3 in MT1-MMP act inh RFP: 7
Reading for #6 in MT1-MMP act inh RFP: 1
Reading for #5 in MT1-MMP act inh: 2

The list continues:
Under each structure – MT1-MMP act inh, MT1-MMP act inh RFP, Yeast UUG start, HIV Env fusion
11) COc1ccc(NC(=O)COC(=O)CCc2nc3ccccc3c(=O)[nH]2)c(OC)c1
    5, 10, 4, ·
12) Cc1ccc(NC(=O)C2=COCCO2)cc1S(=O)(=O)N1CCOCC1
    2, 3, 12, ·
13) COC(=O)c1ccc(CSc2ccc(S(=O)(=O)N3CCCCC3)cn2)cc1
    -5, -3, -5, ·
14) CN(CC(=O)Nc1ccccc1Br)C(=O)CNC(=O)c1cccs1
    0, 5, -14, ·
15) CCC(c1ccc(O)c(O)c1)C(CC)c1ccc(O)c(O)c1 (stereo not drawn)
    5, -6, -17, ·
16) Cc1cc(C)c2c(=O)[nH]c(SCC(=O)Nc3cccc(S(=O)(=O)N(C)C)c3)nc2n1
    3, -4, 3, ·
17) CN(C(=O)CN1CCCCCC1)c1c(N)n(Cc2ccccc2)c(=O)[nH]c1=O
    -2, 2, -11, ·
18) COc1ccccc1C=NN1CCCCCC1
    0, 3, -14, ·
19) CC[C@]12c3[nH]c4ccc(OC)cc4c3CCN1C(=O)C(CC(=O)NC/C=C(\C)CCC=C(C)C)C[C@@H]2C(=O)N1CCN(C(=O)c2ccco2)CC1 (stereo partly drawn)
    -1, -10, -1, ·
20) O=C(OCc1cn([C@@H]2C[C@H](c3ccccc3)N(C(=O)c3cccs3)C[C@H]2O)nn1)c1ccccc1
    1, -1, -10, ·
21) COc1ccc(C)cc1NC(=O)CCc1ccc(S(=O)(=O)N2CCOCC2)cc1
    1, -5, -4, ·
22) CC(=O)C1=CCC(c2ccc(C)cc2)N(S(=O)(=O)c2ccc(Cl)cc2)C1 (stereo not drawn)
    0, -5, -22, ·
23) O=c1cc(CCc2ccccc2)oc2cccc(O)c12
    -4, -3, 6, ·
24) Nc1cc(OCc2ccccc2)ccc1OCc1ccccc1
    -1, -3, -11, ·
25) CCOC(=O)C(c1nc2ccccc2[nH]1)n1c(-c2ccccn2)nc2ccccc21 (stereo not drawn)
    -1, 0, -33, ·
26) CCC(=O)NC(c1ccc(C)cc1)c1cc(Cl)c2cccnc2c1O (stereo not drawn)
    -11, -10, -8, ·
27) COc1ccc(NS(=O)(=O)c2ccc(O)c(C(=O)OCC(=O)N3CCCCC3)c2)cc1
    2, -6, 8, ·
28) CC(OC(=O)c1cc2ccccc2o1)C(=O)Nc1ccc(N2CCOCC2)cc1 (stereo not drawn)
    6, 2, -14, ·
29) O=C(NCCN1C(=O)S/C(=C/c2cccnc2)C1=O)c1cccs1
    0, -1, -7, ·
30) COc1ccc(NS(=O)(=O)c2cc(NC(=O)COc3ccccc3F)ccc2OC)cc1
    7, -5, -12, ·
31) CCN1CCN(c2ccc(S(=O)(=O)N3CCOCC3)cc2NC(=O)C2CCC(C(C)(C)C)CC2)CC1 (stereo not drawn)
    0, -2, 5, ·
32) CC(=O)Nc1ccc(C(=O)N2CCCCC2c2cc(C(=O)N3CCOCC3)no2)cc1 (stereo not drawn)
    2, 4, -7, ·
33) C[C@H](CO)N1C[C@H](C)[C@@H](CN(C)S(=O)(=O)c2ccc(Oc3ccccc3)nc2)OCc2cnnn2CCCC1=O
    -1, -1, -2&9, ·
34) Cc1cccc(NC(=O)COC(=O)C(NC(=O)c2cccc(S(=O)(=O)N3CCOCC3)c2)C(C)C)c1 (stereo not drawn)
    -2, 5, 10, ·
35) Cc1cccc(C)c1NC(=O)CN(Cc1ccccc1)Cc1ccccc1
    -16, -17, -17, ·
36) COc1ccc(NC(=O)COC(=O)C2CC2)cc1S(=O)(=O)N1CCCCC1
    4, 5, -13, ·
37) Oc1cc(-c2ccc(N3CCCCC3)nc2)cc2cccnc12
    17, -2, -22, ·
38) Cc1ccc(S(=O)(=O)NC(=O)C2(C)CCN2C(=O)Cc2ccc(C(C)(C)C)cc2)nc1 (stereo not drawn)
    -2, 2, 3, ·
39) CN(CC(=O)Nc1ccc(Cl)c(C(F)(F)F)c1)C(=O)c1ccc2c(c1)NC(=O)CS2
    8, 2, -9, ·
40) CCN(C1CCS(=O)(=O)C1)S(=O)(=O)c1ccc(Cl)s1 (stereo not drawn)
    1, 0, 6, ·
41) O=C(CN1C(=O)NC2(CCc3ccccc32)C1=O)NCCc1ccccc1 (stereo not drawn)
    -1, -2, 3, ·
42) CN(c1ccccc1)S(=O)(=O)c1ccc(C(=O)NCC(c2ccco2)N2CCCCC2)cc1 (stereo not drawn)
    3, 1, -18, ·
43) Cc1cnc(C(=O)N(c2ccc(N3CCOCC3)cc2)C2C(=O)Nc3ccccc3N=C2c2ccc(F)cc2)cn1 (stereo not drawn)
    3, 0, 1, ·
44) O=C(O)c1ccc(NN=Cc2cc(=O)[nH]c(=O)[nH]2)cc1
    -4, 0, -12, ·
45) CSCCC(NC(=O)COc1ccccc1)C(=O)N(C)Cc1ccc(F)cc1 (stereo not drawn)
    -4, 1, -12, ·
46) Cc1noc(C)c1C(=O)OC(C)C(=O)N(C)c1ccccc1 (stereo not drawn)
    0, -1, 4, ·
47) O=C(CC[C@H]1O[C@@H](n2ccc(=O)[nH]c2=O)[C@H](O)[C@@H]1O)NCc1ccc2c(c1)OCO2
    1, 7, -18, ·
48) CCCS(=O)(=O)NC(=O)C1(C)CCN(C(=O)c2ccc(F)cc2Cl)C1 (stereo not drawn)
    3, 9, -10, ·
49) COc1ccc(C(O)c2ncc(-c3ccccc3)[nH]2)cc1F (stereo not drawn)
    2, -2, -21, ·
50) Cc1cc(=O)oc2cc(OC(C)C(=O)NC3(C#N)CCCCC3)ccc12 (stereo not drawn)
    2, 3, -5, ·
51) COc1ccc(C(=O)Cn2c(N3CCCCC3)nc3c2c(=O)n(C)c(=O)n3C)cc1OC
    -1, 0, ·, 1
52) CCOC(=O)[C@]12CCC=C1N(Cc1cccc3ccccc13)C(=O)[C@H](CC(=O)NCc1ccccc1)C2
    4, -2, ·, 4
53) CCCC(=O)N1CCC1(C)C(=O)Nc1ccc2nc(C)ccc2c1 (stereo not drawn)
    11, 9, ·, 18
54) Cc1cc2c(cc1C)NC(=O)CC(c1ccccc1)=N2
    6, -3, ·, -126
55) Cc1ccc(-c2nc3c(Cl)cc(C(F)(F)F)cn3c2Cc2cccc(Cl)c2)cc1
    -1, -3, ·, 2
56) COC(=O)c1cccc2c(C(=O)O)cc(-c3ccccc3)nc12
    2, 1, ·, 1
57) COCOCCn1cc(CN2CCS(=O)(=O)N(Cc3ccc(-c4ccncc4)cc3)C(C(C)C)C2=O)nn1 (stereo not drawn)
    6, 2, ·, -37
58) CC(=NNC(=O)c1ccncc1)c1ccc2ccccc2c1O
    -117, -3, ·, 39
59) CN(C)C1CN(Cc2cn(Cc3ccc(F)cc3)nn2)S(=O)(=O)C1 (stereo not drawn)
    3, 6, ·, 25
60) CCOC(=O)C1=CCN(S(=O)(=O)c2ccc(F)cc2)C1c1ccc(Cl)c(Cl)c1 (stereo not drawn)
    2, -6, ·, 24

Additional structures.
Under each structure – MT1-MMP act inh, MT1-MMP act inh RFP, Yeast UUG start, HIV Env fusion
61) Cc1ccccc1-c1cc2nc(Oc3cccc(F)c3)n(C)c(=O)c2s1
    -4, -2, ·, -220
62) Nc1ncnc(N)c1NC(=O)c1ccc(OCc2ccccc2)cc1
    -1, 0, ·, -1
63) Cc1ccccc1Cn1c(=O)c2c(nc3n2CCN3Cc2ccco2)n(C)c1=O
    7, 4, ·, 4
64) COC(=O)[C@]12CCCCC=C1N(Cc1ccccc1)C(=O)[C@H](CC(=O)N1CCC(c3ccccc3)CC1)C2
    -1, -4, ·, 23
65) COC(=O)[C@]12CCCCC=C1N(CCC1=CCCCC1)C(=O)[C@H](CC(=O)N1CCCC1)C2
    0, -5, ·, 9
66) CCOC(=O)N1C(=O)C[C@](Sc2ccc(C)cc2)(C(=O)OC)[C@H]1c1ccccc1
    -3, -2, ·, -5
67) CC(=O)N1CCN(C(=O)c2cccc(S(=O)(=O)Nc3c(C)n(C)n(-c4ccccc4)c3=O)c2)CC1
    -1, 0, ·, -3
68) O=c1c2ccccc2c2ccccc2c(=O)n1Cc1ccc2c(c1)OCO2
    5, -6, ·, -71
69) COc1cccc(CNC(=O)[C@@H]2CCCN2C(=O)[C@@H]2CCCN2)c1
    -1, 4, ·, 7
70) COc1ccccc1C=C1CCc2ccccc2C1=O
    4, 3, ·, 4

3 compounds from above, showing only MT1-MMP act inh RFP.
entry | canonical_smiles | MT1-MMP act inh RFP
68 | O=c1c2ccccc2c2ccccc2c(=O)n1Cc1ccc2c(c1)OCO2 | -6
69 | COc1cccc(CNC(=O)[C@@H]2CCCN2C(=O)[C@@H]2CCCN2)c1 | 4
70 | COc1ccccc1C=C1CCc2ccccc2C1=O | 3

Going on with the list.
Under each structure – MT1-MMP act inh, MT1-MMP act inh RFP, Yeast UUG start, HIV Env fusion
71) CCCCCCCCCCCCCC(=O)NO
    -4, 0, ·, 8
72) CN(CC(=O)Nc1ccccc1Br)C(=O)c1n[nH]c2ccccc12
    2, -3, ·, 3
73) O=c1n(CC2CO2)c(=O)n(CC2CO2)c(=O)n1CC1CO1 (stereo not drawn)
    13, 0, ·, 5
74) NC(=S)N1N=C(c2ccccc2)CC1=O
    1, 7, ·, -37
75) O=C1c2ccccc2C(=O)N1CC1CO1 (stereo not drawn)
    -2, 3, ·, -9
76) CC1(C(=O)NCc2ccccc2)CSCC(=O)N1C1CCN(Cc2ccccc2)CC1 (stereo not drawn)
    6, 9, ·, -16
77) O=C1Nc2ccccc2-n2nnnc2C1N1CCN(c2ccc(C(F)(F)F)cn2)CC1 (stereo not drawn)
    -1, -12, ·, 16
78) CCOC(=O)[C@]12CCC=C1N(CCC1=CCCCC1)C(=O)[C@H](CC(=O)NCc1ccc(C)o1)C2
    3, 7, ·, -9
79) CCOc1cc(OCC)cc(C(=O)N2CCC[C@H]2C(=O)N2CCC[C@H]2C(=O)NCc2cccc(OC)c2)c1
    0, 2, ·, -9
80) O=C(NCc1cccs1)[C@@H]1CCCN1S(=O)(=O)c1ccccc1F
    0, 0, ·, -7
81) COc1ccccc1CNC(=O)COC(=O)c1cnc(C)cn1
    -5, 3, ·, -3
82) O=C1NC[C@H](CCCCN2CCN(Cc3ccccc3)C(=O)C2=O)N(CC2CCCCC2)C1=O
    2, 7, ·, i
83) O=S1(=O)N[C@@H](Cc2ccccc2)COc2cc(N3CCSCC3)ccc21
    5, 4, ·, -37
84) COc1ccc2cc(CNCCOCCOCCNCc3ccc4cc(OC)ccc4c3)ccc2c1
    3, 1, ·, 3
85) CC1CCCC12NC(=O)NC2=O (stereo not drawn)
    -1, 0, ·, -15
86) CC(C)[C@@H]1Cc2[nH]c(=O)[nH]c(=O)c2[C@H](C)O1
    2, 6, ·, -25
87) CSCCC(C(=O)NC1CCCC1)n1c(-c2ccccn2)nc2ccccc21 (stereo not drawn)
    3, -2, ·, -43
88) Cc1cccc(C)c1-n1nnnc1C(c1ccnc2ccccc12)N(C)Cc1ccc(Cl)c(Cl)c1 (stereo not drawn)
    -12, -24, ·, 0
89) CC(Sc1nnc(N)s1)C(=O)NNC(=O)c1cccc(Cl)c1 (stereo not drawn)
    -1, -2, ·, -8
90) CC(C)C(=O)N1CCC1(C)C(=O)Nc1cccc(Oc2ccccc2)c1 (stereo not drawn)
    -5, -6, ·, -1
91) COC(=O)[C@@]1(Cc2ccc(F)cc2)[C@H]2c3cc(C(=O)N4CCCC4)n(Cc4ccc(C)o4)c3C[C@H]2CN1C(=O)c1ccccc1
    -7, -17, ·, -42
